MgrA DNA FP: modulators of Staphylococcus aureus MgrA DNA binding. fluorescence polarization. inhibition, %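 (about 10 µg/mL by stock and volumes)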. 0.13% of 84,000 active. AID 602314;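 active means above 50% in either of two replicates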;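 further: 0% = protein plus DNA without compound and 100% = DNA alone without protein; higher means less MgrA bound to DNA so lower polarization; one replicate is shown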
Sa helicase inh: S. aureus DNA helicase inhibition; purified S. aureus helicase, fluorescence unwinding assay; about half of the hits fall short of the stated cut; inhibition, %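 (tested at about 80 µM)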; 0.05% of 120,000 active; AID 485395;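 active means both duplicates at 50% or more, or one of them with a favoured structure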;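 further: 0% = mean of negative control wells and 100% = mean of positive control wells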
An asterisk follows results filed as active; x = not tested or not shown.

Every second line gives: MgrA DNA FP | Sa helicase inh
CCSc1nnc(NC(=O)c2ccc3ccccc3c2)s1
→ x | 6
COc1ccc(/C=c2\[nH]c(=O)/c(=C\c3ccc(OC)cc3)[nH]c2=O)cc1
→ 1.2 | 8
CCOc1ccc(NC(=O)C2CCN(C(=O)Cc3ccccc3)CC2)cc1
→ -0.9 | 17
O=C(OCc1nc2ccccc2s1)c1cccc(N2C(=O)CCC2=O)c1
→ x | -21
CCSc1nc2ccccc2c(=O)n1-c1c(C)n(C)n(-c2ccccc2)c1=O
→ x | 2
CC(Sc1ncnc2nc[nH]c12)c1ccccc1 (stereo not drawn)
→ x | 14
O=C1C=CC(=O)N1c1ccc(C(F)(F)F)cc1
→ 4.6 | x
Cc1cc(NC(=O)c2c(F)cccc2Cl)no1
→ -2.3 | 9
COc1ccc(N=CN(C)C)cc1OC
→ x | -19
CCC(C)c1ccccc1N=Cc1ccsc1 (stereo not drawn)
→ -2.6 | -10
O=C(Nc1cccc(O)c1)c1cc(C2CC2)on1
→ x | 7
CC(=O)NCc1cccs1
→ x | 12
Cc1ccc(C(=O)NCCc2cccs2)cc1
→ -1.9 | 2
CCS(=O)(=O)NCCc1cc2ccc(OC)cc2[nH]c1=O
→ x | -24
COc1ccc(C2CC(=O)C=C(NCC3CCCO3)C2)cc1 (stereo not drawn)
→ x | 0
O=C(CCS(=O)(=O)Cc1ccccc1)n1nnc2ccccc21
→ 5.3 | 23
COc1cc(NC(=O)c2ccc(OC(F)(F)F)cc2)c(C(=O)O)cc1OC
→ 4.5 | x
N#CCSC1=N/C(=C/c2ccco2)C(=O)N1c1ccc(OC(F)F)cc1
→ x | -19
C1=CC2CC1CC2CNCc1ccco1 (stereo not drawn)
→ -5.3 | 20
N#Cc1c(-c2ccccc2)c(C#N)c2sc3ccccc3n2c1=O
→ 1.7 | 2
Cc1c(C(=O)N2CCCC2)oc2c1-c1nn(CC(=O)NC(C)c3ccc4c(c3)OCCO4)cc1CC2 (stereo not drawn)
→ x | -27
COc1ccc(CCNc2nccc(=O)[nH]2)cc1OC
→ -3.0 | 0
Cc1ccc(C(O)(CCN2CCCCC2)c2ccccc2)cc1 (stereo not drawn)
→ x | -2
Cc1ccc(S(=O)(=O)Nc2sc3c(c2C(N)=O)CCCC3)cc1
→ 4.3 | x
CCC(=O)Nc1ccccc1Cl
→ 1.4 | 7
COC(=S)Nc1ccc(C(C)C)cc1
→ -1.2 | x
O=C(NCc1ccc(F)cc1)NC1CC(=O)N(c2ccccc2)C1 (stereo not drawn)
→ x | -1
O=C1CCCC2=C1C(c1ccc(Cl)cc1)n1c(s/c(=C\c3cccnc3)c1=O)=N2 (stereo not drawn)
→ x | 5
CC(C)(C)C(=O)Nc1c[nH]c(=O)[nH]c1=O
→ 5.4 | 3
CN(C(=O)CSc1nnc(-c2ccccc2)o1)c1c(N)n(Cc2ccccc2)c(=O)[nH]c1=O
→ x | -14
c1ccc(-c2nnc(-c3ccccc3)o2)cc1
→ x | 1
O=c1[nH]c2ccccc2c2nncn12
→ x | -30
CSC1=NCCN1C(=O)COc1ccccc1
→ -1.7 | 14
NS(=O)(=O)c1ccc(NC(=O)CSC2=NC(=O)C(Cc3ccccc3)C(=O)N2)cc1 (stereo not drawn)
→ x | 31
O=C1c2cccc3c(N4CCNCC4)ccc(c23)C(=O)N1c1ccc(Cl)cc1
→ 60* | -92
Cc1ccc(C)n1CCn1c(C)ccc1C
→ 5.5 | x
CSc1ncc(C(=O)OCc2ccc(C#N)cc2)n1-c1ccccc1
→ x | 7
O=C(O)c1ccnc(Cl)c1
→ -4.0 | 13
CN(C)/C=C/C=C1C(=O)CC(C)(C)CC1=O
→ x | -107
CCOC(=O)c1cnc2cc(C(F)(F)F)ccc2c1Nc1c(C)n(C)n(-c2ccccc2)c1=O
→ x | -11
CCn1cc(C(=O)N(C)Cc2ccccc2)c2cc(OC)c(OC)cc2c1=O
→ 1.0 | 2
CSc1nn(CSc2c(Cl)cccc2Cl)c(=S)s1
→ -0.3 | x
CCN(CC)CCCNC1=NCC(C)S1 (stereo not drawn)
→ -0.5 | 11
CC(C)C(=O)OCc1cc(=O)n2ccsc2n1
→ x | 11
CCn1cc(C(=O)NCc2ccc(C)o2)c2cc(OC)c(OC)cc2c1=O
→ x | 29
O=C(O)CNC(=O)COc1ccc(-c2ccccc2)cc1
→ -1.5 | -11
O=C(O)Cc1ccc2ocnc2c1
→ 0.1 | x
CCC1SC2=NCN(c3ccccc3)CN2C1=O (stereo not drawn)
→ 3.9 | 6
CC1=C(C(=O)OCc2ccccc2)C(c2ccccc2)NC(=O)N1C (stereo not drawn)
→ 1.0 | x
CCN(CC)CCN1C(=O)C(=O)/C(=C(/O)c2ccc3c(c2)OCCO3)C1c1cccc(Cl)c1 (stereo not drawn)
→ 1.9 | 0
COc1ccc(-c2n[nH]c(=S)n2-c2ccccc2Cl)cc1
→ 3.1 | x
NC(N)=NC(N)=Nc1ccc(Cl)cc1Cl
→ -1.9 | 2
COc1cc(Br)c(C2C(C#N)=C(C)NC3=C2C(=O)CC(c2ccc(Cl)cc2)C3)cc1OC (stereo not drawn)
→ -0.7 | x
O=C(c1ccccc1)N1CCN(S(=O)(=O)N2CCCCCC2)CC1
→ 0.1 | 13
COc1cccc(C(=O)Nc2ccc(N3CCCC3)cc2)c1
→ 0.8 | 17
COc1cc(OC)c(C2=NOC(C(=O)NCCCN3CCOCC3)C2)cc1Cl (stereo not drawn)
→ -1.8 | 8
CCN(Cc1nc(-c2ccc(OC)c(OC)c2)no1)C(=O)Cc1cccc2ccccc12
→ 0.1 | -9
CCCCc1ccc(NS(=O)(=O)CC23CCC(CC2=O)C3(C)C)cc1 (stereo not drawn)
→ 1.0 | -1
c1ccc(CN2CCOCC2)cc1
→ x | 3
O=C(Cc1ccc(Cl)cc1)n1cc(Cl)cn1
→ 3.5 | 7

(next part)
Every second line gives: MgrA DNA FP | Sa helicase inh
O=C(Cn1ncc2c3ccccc3n(Cc3ccccc3)c2c1=O)N1CCOCC1
→ -1.3 | 5
CC(C)N(C(=O)CSc1nnc(-c2cccnc2)n1Cc1ccccc1)C(C)C
→ 0.0 | 9
Cc1cc2nc[nH]c2cc1C
→ x | 13
NS(=O)(=O)c1ccc(Nc2c3c(nc4ccc(Cl)cc24)CCC3)cc1
→ x | 4
CC(O)CNC(=O)c1sc2ccccc2c1Cl (stereo not drawn)
→ -3.3 | 3
O=C(O)c1ccc2c(c1)CCN2
→ x | 6
CCCSc1nc2ccccc2n1CC(=O)N1CCN(Cc2ccccc2)CC1
→ x | -4
N#CCSc1nc2cc(C(=O)NC3CCCCC3)ccc2c(=O)n1Cc1ccccc1
→ x | 20
COc1cc(OC)cc(-n2c(=O)c3ccccc3n(Cc3cc(=O)n4ccccc4n3)c2=O)c1
→ -0.2 | 2
CC1=C(C(=O)OCc2ccccc2)C(c2ccc3c(c2)OCO3)C2=C(CC(c3ccccc3)CC2=O)N1 (stereo not drawn)
→ -1.0 | x
O=C(c1ccc2ncccc2c1)N1CCN(c2ccccc2)CC1
→ 0.3 | x
CCCC1C(c2ccccc2)C2(C#N)C(=O)NC1(O)CC2(C#N)C#N (stereo not drawn)
→ -3.4 | 15
C=CCn1c(=N)c(C(=O)OC)cc2c(=O)n3cccc(C)c3nc21
→ 1.6 | 2
Cc1ccc(C2=NN(C(=O)COC(=O)Cn3nc(-c4ccccc4)oc3=O)C(c3ccco3)C2)cc1 (stereo not drawn)
→ x | 11
Cc1nc(-n2nnc3cc(C)c(C)cc32)c2c3c(sc2n1)CCCC3
→ 4.8 | 6
O=[N+]([O-])c1ccc(N2CCOCC2)cc1Sc1nc2ccccc2[nH]1
→ 0.5 | x
COC(=O)CN1C(=O)c2cccnc2Sc2ccccc21
→ x | -18
CS(=O)(=O)N1Cc2ccccc2CC1C(=O)N1CCN(C(=O)c2cccs2)CC1 (stereo not drawn)
→ x | -14
O=C1c2ccccc2C(=O)N1Cc1nc2ncccc2[nH]1
→ x | -34
CC(OC(=O)c1ccc(S(=O)(=O)N2CCCC2)cc1)C(=O)N1CCc2ccccc21 (stereo not drawn)
→ x | -18

MgrA DNA FP: what is marked active above
Every second line gives: MgrA DNA FP | Sa helicase inh
O=C1c2cccc3c(N4CCNCC4)ccc(c23)C(=O)N1c1ccc(Cl)cc1
→ 60* | -92

Later entries:
Every second line gives: MgrA DNA FP | Sa helicase inh
C[C@]12CCC3c4ccc(O)cc4CCC3C1CCC2=O (stereo partly drawn)
→ -0.7 | x
COC(=O)c1sccc1Oc1ccc(C(F)(F)F)cc1NC(=O)/C=C/C(=O)O
→ -3.2 | x
COc1ccc(-c2coc3c(C)c4oc(=O)c5c(c4cc23)CCCC5)cc1F
→ 1.5 | 8
CN(CCN1CCOCC1)C1CCN(C(=O)CNC(=O)/C=C/c2cccc(C(F)(F)F)c2)CC1
→ x | 5
O=C(c1cccc2ccccc12)c1nc2c(n1O)CCCC2
→ 2.0 | 14
COc1ccc(C(C#N)OC(C)=O)c(OCc2ccccc2)c1OC (stereo not drawn)
→ -9.1 | 16
COc1cccc(OCC(=O)NCC(C)C)c1
→ x | 19
Cc1ccccc1CN1CCC(CN)CC1
→ 1.3 | -8
CCn1c(=O)cc(SCC(=O)NCCCN2CCCC2)c2ccccc21
→ -0.2 | 7
O=c1[nH]c(=S)n(-c2cccc(Cl)c2)c2c1CN(C1CCCC1)CN2
→ x | -10
O=[N+]([O-])c1ccccc1-c1ncc2ccccn12
→ -0.5 | x
CCCC12CN3CC(CCC)(CN(C1)C(=O)c1ccccc1C3=O)C2=O
→ 0.1 | 17
O=C(COc1ccc(-c2nnco2)cc1)Nc1ccccc1Sc1ccccc1
→ x | 4
O=C(CC(=O)c1ccccc1O)c1ccc(Cl)cc1
→ x | -2
O=C1CNc2ccc(C(=O)NCCC3=CCCCC3)cc2N1
→ x | 5
N#Cc1cc(C(=O)O)c(N)[nH]c1=O
→ x | 16
CCC(c1nnnn1CC1CCCO1)N(Cc1ccc2c(c1)OCO2)Cc1cc2cc(C)cc(C)c2[nH]c1=O (stereo not drawn)
→ 1.1 | 2
COc1ccc2c(c1)C(c1ccc(N3CCOCC3)cc1)=NNC(c1cccnc1)=N2
→ -0.5 | 5
CC1CCCC(C)N1c1nn(C)c(=O)[nH]1 (stereo not drawn)
→ -1.1 | x
COC(=O)NC12CCCC(CCC1)C2
→ -1.4 | x
CC(=O)N1N=C(c2c(-c3ccccc3)c3cc(Cl)ccc3[nH]c2=O)CC1c1ccc(Br)cc1 (stereo not drawn)
→ -0.6 | x
Cn1c(CCCNC=O)nc2ccccc21
→ 0.9 | -5
Cn1c(=O)[nH]c(=O)c2c1ncn2Cc1ccccc1F
→ x | 16
CC(=O)N=c1sccn1CC(O)c1ccc(Br)cc1 (stereo not drawn)
→ x | -19
CCCCN(CC)C(=O)Cn1ncc2c(C)n(Cc3ccc(F)cc3)c(C)c2c1=O
→ x | -16
Cc1nc2ccccc2cc1C(=O)NCc1cccnc1
→ x | 5
CNC(=O)c1ccccc1S(=O)c1ccccc1 (stereo not drawn)
→ 4.2 | x
COc1ccc(C2CC(=O)C3=C(C2)Nc2ccccc2NC3c2cc(OC)c(OC)cc2OC)cc1 (stereo not drawn)
→ -1.7 | x
CC1Cn2c(nnc2-c2cccs2)S1 (stereo not drawn)
→ x | 7
CC1CCN(C(=O)COc2ccccc2Cl)CC1
→ -1.6 | 15
O=C(Cn1cnc2c(nnn2Cc2ccc(F)cc2)c1=O)NCC1CCCO1 (stereo not drawn)
→ x | 9
Cc1ccc(NC(=S)NCC2COc3ccccc3O2)cc1 (stereo not drawn)
→ 0.8 | x
COC(=O)CCC(=O)c1ccc(Cc2ccc(C(=O)CCC(=O)OC)s2)s1
→ 14 | 3
Cc1cc(OC(=O)c2nn(-c3ccccc3)nc2C)n(-c2cccc(Cl)c2)n1
→ -0.1 | x
CCOC(=O)N1CCN(c2nc3ccccc3nc2Nc2sc3c(c2C#N)CCCC3)CC1
→ x | -33
O=C(OCc1ccccc1)C1=COCCO1
→ -2.7 | 16
CCc1ccc(C(=O)CCC(=O)O)cc1
→ 1.2 | x
COC(=O)/C=C1\SC(=Nc2ccc(Cl)c(Cl)c2)NC1=O
→ 6.2 | 1
O=C1NC(=O)/C(=C/C(=O)N2CCCCC2)S1
→ x | 8
CSc1nsc(SC)c1NC(=O)N1CCCCC1
→ -2.1 | 10

Reprinted from the part before: 2 entries, followed by the next part.
Every second line gives: MgrA DNA FP | Sa helicase inh
O=C1NC(=O)/C(=C/C(=O)N2CCCCC2)S1
→ x | 8
CSc1nsc(SC)c1NC(=O)N1CCCCC1
→ -2.1 | 10
CN1C(=O)C2(c3ccccc31)N(c1cccc(Cl)c1)C(=O)CS2(=O)=O (stereo not drawn)
→ x | -11
Cc1cc(C(=O)OCCOc2ccc(Br)cc2)c(C)o1
→ x | -14
CC(C)Nc1nc(NC(C)C)nc(C(N)=O)n1
→ 1.9 | -13
Cc1ccc2nc3c(nc2c1)-c1ccccc1C3=O
→ -3.4 | x
CC(C)C1(C)N=C(c2ccc3c(c2)OCO3)CC(c2ccccc2O)N1 (stereo not drawn)
→ -0.6 | 14
COc1ccc(-c2ccc3ccccc3n2)cc1OC
→ 3.0 | x
C=CCn1c(CNC=O)nc2ccccc21
→ -0.7 | -3
COC(=O)C(Cc1ccccc1)n1c(C)ccc1C (stereo not drawn)
→ x | 5
O=C(COC(=O)C1CCCCC1)NCc1ccc(Cl)cc1
→ -1.9 | 8
CC1=C(C(=O)OCCSc2ccccc2)C(c2cc3c(cc2Br)OCO3)NC(=O)N1 (stereo not drawn)
→ -0.7 | x
CC(C)(C)NC(=NCC1CC1)NN
→ -0.1 | x
COc1ccc(NC(=O)c2nn3c(c2Br)NC(c2cccs2)CC3C(F)(F)F)cc1OC (stereo not drawn)
→ 0.6 | x
CC(=O)N(Cc1nc2ccccc2c2nc3ccccc3n12)c1ccccc1Br
→ 1.5 | x
CC1=CC(C)(C)N(C(=O)NC2CCCCC2)c2ccccc21
→ x | -23
CC(SCC(=O)N1CCN(c2ccccc2)CC1)C(=O)O (stereo not drawn)
→ x | -7
O=C1NC2(CCCc3ccccc32)C(=O)N1CN1CCc2ccccc2C1 (stereo not drawn)
→ x | 12
Cn1nc(C(=O)NCCN2CCOCC2)c2ccccc2c1=O
→ x | 14

An excerpt; the hit share may differ from the screen's.
